GLA inh pH 4.5 = qHTS Assay for Inhibitors of Human alpha-Galactosidase at pH 4.5; Alpha-galactosidase A (Homo sapiens), P06280; purified enzyme, 4-MU-alpha-Gal fluorescence, pH 4.5; activity change, negative = inhibition, % at 105 µM; 230,000 tested, under 10 active; inconclusive = small, poorly fitted or top-dose-only inhibition, or a rising curve; inactive = flat fitted curve, though single readings scatter; no compound was filed as active;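 further: 0% = full activity with enzyme and -100% = basal without enzyme; dose as in the result columns while the protocol names 77 µM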
Target sequence (P06280 whole entry, looked up): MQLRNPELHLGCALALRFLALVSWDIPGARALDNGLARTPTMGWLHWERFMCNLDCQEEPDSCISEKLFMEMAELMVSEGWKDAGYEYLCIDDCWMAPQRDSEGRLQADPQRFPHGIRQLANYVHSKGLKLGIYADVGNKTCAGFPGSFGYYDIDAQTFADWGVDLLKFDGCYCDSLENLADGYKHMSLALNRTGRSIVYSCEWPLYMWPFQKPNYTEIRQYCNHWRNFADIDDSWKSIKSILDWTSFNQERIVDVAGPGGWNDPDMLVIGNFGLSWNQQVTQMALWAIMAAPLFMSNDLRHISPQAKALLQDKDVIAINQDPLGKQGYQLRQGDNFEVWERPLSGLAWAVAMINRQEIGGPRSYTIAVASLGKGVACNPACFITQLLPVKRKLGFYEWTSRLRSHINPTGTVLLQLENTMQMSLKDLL
* hit, by the source's call; & = joins results of further samples. An excerpt. The share of hits here may be higher or lower than overall.

SMILES	GLA inh pH 4.5
O=C(O)C1CC(C2CCCCN2)CN2CCCCC12 (stereo not drawn)	-0.2
C[C@@H](C1[C@@H](O)CC2C3C=CC4C[C@@H](O)CC[C@]4(C)[C@H]3CC[C@@]21C)[C@@H]1CCCCN1 (stereo partly drawn)	-7.5
CC(C)[C@@H](CC(=O)N[C@@H]1CCCC[C@H]1C(=O)N[C@H](CC(=O)N[C@@H](CCC(=O)O)CC(=O)O)Cc1c[nH]c2ccccc12)NC(=O)C[C@H](Cc1c[nH]c2ccccc12)NC(=O)[C@@H]1CCCC[C@H]1N	-0.6
COC(=O)[C@H](Cc1ccccc1)NC(=O)O[C@@H]1C(=O)c2cc(Br)ccc2O[C@H]1c1ccc2c(c1)OCO2	-5.7
N[C@H](C(=O)O)c1ccc(C(=O)O)c(O)c1	4.5
COC(=O)C1=C(C(=O)OC)[C@@H]2N(Cc3ccccc3)c3ccccc3[C@@]23C[C@@H](C(=O)OC)N(S(=O)(=O)c2ccc(Br)cc2)C3=N1	1.2
O=C(O)c1cc2cc(Cc3cccnc3)ccc2o1	-2.1&2.6
C[C@H]1Cc2c(COc3ccccc3)nc3c(c2CO1)CN(C(=O)c1cc(I)ccc1F)CC3	7.0
C[C@H]1Cc2c(-c3ccccc3)nc3c(c2CO1)CN(S(=O)(=O)c1ccc2c(c1)OCCN2C)CC3	-0.5
CC1(C)CC[C@]2(C(=O)O)CC[C@]3(C)C(=CCC4[C@@]5(C)CC[C@H](O)C(C)(C)[C@@H]5CC[C@]43C)C2C1 (stereo partly drawn)	-5.5
O=c1[nH]c(=O)c2nc(Br)n(C3OC(CO)C(O)C3O)c2[nH]1 (stereo not drawn)	-0.4
Brc1c(Br)c(Br)c2n[nH]nc2c1Br	-1.9&-6.5
CCCCC[C@H](O)/C=C/[C@H]1C(=O)C[C@H](O)[C@@H]1C/C=C\CCCC(=O)O	-2.8
c1cnc2c(-c3nccc4c3[nH]c3ccccc34)cccc2c1	1.3
CCCCCCCC1=Cc2ccccc2C(CC(C)=O)N1C(=O)OC (stereo not drawn)	1.5
CCCn1c(-c2ccc(F)cc2)nc2c(NCCCCN3CCCC3)nc(C)nc21	-2.1
CC1=C(C(=O)O)N2C(=O)[C@@H](NC(=O)C(N)c3ccccc3)[C@H]2SC1 (stereo partly drawn)	-23.2
COc1cc(OC)c2c(=O)c(O)c(-c3ccc(OC)c(OC)c3)oc2c1	3.4
CC1=C(/C=C/C(C)=C/C=C/C(C)=C/C=C/C=C(C)/C=C/C=C(C)/C=C/C(=O)[C@]2(C)CC(O)CC2(C)C)C(C)(C)CC(O)C1 (stereo partly drawn)	4.5
O=c1oc2ccccc2cc1O	-6.1

Arranged by length of the SMILES (ascending): part of the list above.
SMILES	GLA inh pH 4.5
Brc1c(Br)c(Br)c2n[nH]nc2c1Br	-1.9&-6.5
CCCn1c(-c2ccc(F)cc2)nc2c(NCCCCN3CCCC3)nc(C)nc21	-2.1
CC1=C(C(=O)O)N2C(=O)[C@@H](NC(=O)C(N)c3ccccc3)[C@H]2SC1 (stereo partly drawn)	-23.2
COC(=O)[C@H](Cc1ccccc1)NC(=O)O[C@@H]1C(=O)c2cc(Br)ccc2O[C@H]1c1ccc2c(c1)OCO2	-5.7
CC(C)[C@@H](CC(=O)N[C@@H]1CCCC[C@H]1C(=O)N[C@H](CC(=O)N[C@@H](CCC(=O)O)CC(=O)O)Cc1c[nH]c2ccccc12)NC(=O)C[C@H](Cc1c[nH]c2ccccc12)NC(=O)[C@@H]1CCCC[C@H]1N	-0.6

Next results.
SMILES	GLA inh pH 4.5
C[C@H](N)[C@H](O)c1cccc(O)c1	2.2
CO[C@]1(NC(=O)C2SC(=C(C(N)=O)C(=O)O)S2)C(=O)N2C(C(=O)O)=C(CSc3nnnn3C)CS[C@H]21 (stereo partly drawn)	-6.3
NCC1O[C@@H](OC2C(N)C[C@H](N)[C@@H](O[C@H]3OC(CO)C(O)C(N)C3O)C2O)C(N)C(O)C1O (stereo partly drawn)	17.7
CC(C)C(N)C(=O)NC(Cc1c[nH]c2ccccc12)C(=O)O (stereo not drawn)	0.2
CC#CCN1c2ccccc2[C@]23C[C@@H](C(=O)OC)N(S(=O)(=O)c4ccc(OC)cc4)C2=NC(C(=O)OC)=C(C(=O)OC)[C@H]13	-2.0
COC(=O)[C@]1(C)CCC[C@]2(C)c3ccc(C(C)C)cc3C(=O)CC12 (stereo partly drawn)	-3.1
CC1(OC(=O)CCc2ccccc2)C(=O)C=C2C=C(C3CC3)OC=C2C1=O (stereo not drawn)	-12.4
CC(=O)OC1CCC2(C)C3=C(CCC2C1(C)C)[C@]1(C)CCC(C(C)CCC=C(C)C)[C@]1(C)CC3 (stereo partly drawn)	0.1
C=CCOC(=O)[C@H](O)[C@@H](O)C(=O)OCC=C	-12.9
CC(C)Oc1ccc2c(=O)c3cc(C(=O)O)ccc3oc2c1	6.2
CCC/C=C(\CCC)C(NC(=O)CCc1ccccc1)c1ccc(C(F)(F)F)cc1 (stereo not drawn)	-11.9
CCCCC#Cc1nc(N)c2ncn([C@@H]3O[C@H](C(=O)NCC)[C@@H](O)[C@H]3O)c2n1	-6.3
O=C(OCCOCCO)c1ccccc1Nc1cccc(C(F)(F)F)c1	6.9
CC1(C)CC(=O)C([C@H]2C3=C(CC(C)(C)CC3=O)Oc3ccccc32)C(=O)C1	-0.7
CN(C)C(=O)c1ccc(-c2nc(Nc3ccncc3)c3ccccc3n2)cc1	-2.2
C=C(C(=O)O)[C@@H]1CC[C@@]2(C)CCC[C@](C)(O)[C@@H]2C1	-1.4
C=C[C@](C)(O)CCC1C(=C)CC(OC(C)=O)C2C(C)(C)CCCC12C (stereo partly drawn)	-14.5
NC1CONC1=O (stereo not drawn)	0.4&5.9
CN(C)C1C(=O)C(C(N)=O)C(=O)C2(O)C(=O)C3C(=O)c4c(O)ccc(Cl)c4C(O)C3CC12 (stereo not drawn)	-7.7
O=c1c(O)c(-c2ccc(O)cc2)oc2ccccc12	8.0
CCCCCCCCCCCCCCCCCC(=O)NCC(COP(=O)([O-])OCC[N+](C)(C)C)OCC (stereo not drawn)	-24.3
CCOC(=O)C(Cc1ccc(O)cc1)NC(C)=O (stereo not drawn)	6.1
CN1C2CC(OC(=O)C(CO)c3ccccc3)C[C@@H]1[C@H]1OC21 (stereo partly drawn)	-4.2
CCC/C=C(\CCC)C(NC(=O)c1cccs1)c1ccc(C(F)(F)F)cc1 (stereo not drawn)	-3.3
Cc1nc(NC2CCCCC2)c2nc(-c3ccccc3)n(CC3CCN(C)CC3)c2n1	-0.4
CC1(C)S[C@@H]2[C@H](NC(=O)[C@@H](NC(=O)N3CCNC3=O)c3ccccc3)C(=O)N2[C@H]1C(=O)O	-3.0
COc1ccc(NC2C[C@H]3CCCC(=O)N4CC[C@@H](C2)[C@@H]34)cc1 (stereo partly drawn)	-1.0
CNCCNS(=O)(=O)c1cccc2cnccc12	0.9
CCCCc1cc2c(cn1)=C(OC(=O)c1cccs1)C(C)(OC(=O)CC)C(=O)C=2 (stereo not drawn)	2.3
CC(C)C[C@@H](CC(=O)N[C@@H](CCC(=O)O)CC(=O)O)NC(=O)[C@@H]1CCCC[C@H]1NC(=O)C[C@@H](NC(=O)C[C@H](Cc1ccccc1)NC(=O)[C@@H]1CNCC[C@H]1N)C(C)C	-4.7
NC(C(=O)N[C@@H]1C(=O)N2C(C(=O)O)=C(Cl)CS[C@H]12)c1ccccc1 (stereo partly drawn)	2.2
CCC/C=C(\CCC)C(NS(=O)(=O)c1ccc(C(F)(F)F)cc1)c1ccc(C(=O)OC)cc1 (stereo not drawn)	-27.7
CC1CCC2[C@](C)(CO)C(O)CC[C@]2(C)C12CCC(CO)(CCO)O2 (stereo partly drawn)	-9.7
CCCC/C=C/C(NC(=O)c1ccco1)c1ccccc1 (stereo not drawn)	-8.4
O=C(O)CCC/C=C\C[C@@H]1[C@@H](/C=C/[C@@H](O)COc2cccc(C(F)(F)F)c2)[C@H](O)C[C@@H]1O	-9.8
COc1ccc2c(c1)OC(=O)CC2c1ccc2c(c1)OCO2 (stereo not drawn)	-24.0
CC(=O)NCCNc1nc(-c2ccccc2C(F)(F)F)nc2ccccc12	7.9
CC(=O)OC1CC[C@]2(C)C(CC(OC(C)=O)[C@@]3(C)C4=CC(=O)OC(c5ccoc5)[C@]4(C)CCC23)C1(C)C (stereo partly drawn)	-15.8&-4.5&-2.2
CC[C@]1([C@H]2O[C@@H]([C@@H]3O[C@](O)(CO)[C@@H](C)C[C@H]3C)C[C@H]2C)CC[C@@H]([C@]2(C)CC[C@@]3(C[C@@H](O)[C@@H](C)[C@@H]([C@H](C)[C@H](OC)[C@H](C)C(=O)O)O3)O2)O1	-3.5
CC(=O)N[C@@H](Cc1ccc(O)cc1)C(=O)O	0.9
COC(=O)c1ccc(C(/C=C/[C@@H](C)C(=O)NCCN2CCCC2)NC(=O)OCc2ccccc2)cc1 (stereo partly drawn)	-18.5
CS(=O)(=O)Nc1cccc(-c2nc(Nc3ccccc3)c3ccccc3n2)c1	-4.0
CN[C@@H]1[C@H](O[C@@H]2O[C@H](C)[C@@](O)(CO)[C@H]2O[C@H]2[C@H](O)[C@H](O)[C@H](N=C(N)N)[C@@H](O)[C@@H]2N=C(N)N)O[C@@H](CO)[C@H](O)[C@H]1O	-13.1
COC(=O)[C@@]1(Cc2ccccc2)C=C[C@@H](C)N1C(=O)c1ccccc1	4.6
CCN(CC)CCOC(=O)[C@@H](Cc1cccc2ccccc12)C[C@@H]1CCCO1	-1.5
COc1ccccc1CNc1ncncc1-c1ccc(N(C)C)cc1	-4.4
COC/C=C/C1=CC2=CC(=O)C(C)(OC(=O)c3cnc4ccccc4n3)C(=O)C2=CN1c1cccc(C#N)c1 (stereo not drawn)	-8.0
CN(C)Cc1ccccc1-c1cncnc1NCc1cccnc1	-4.7
C=CC1=C2C=C(C3CC3)N(Cc3ccccc3)C=C2C(=O)C(C)(OC(=O)c2ccco2)C1=O (stereo not drawn)	9.0
CCCN1CC(CSC)C[C@H]2c3cccc4[nH]cc(c34)C[C@H]21 (stereo partly drawn)	-5.5
COc1c(O[C@H]2O[C@@H](CO)[C@@H](O)[C@@H](O)[C@@H]2O)cc2c(c1OC)-c1ccc(SC)c(=O)cc1[C@H](NC(C)=O)CC2	-3.2
COC(=O)C1=C(C)NC(C)=C(C(=O)OC(C)C)[C@H]1c1cccc2nonc12	8.5
CN[C@H]1CCc2cc(OC)c(OC)c(OC)c2-c2ccc(N[C@@H]3CCCCNC3=O)c(=O)cc21	1.0
Fc1ccc([C@H]2CCNC[C@H]2COc2ccc3c(c2)OCO3)cc1	-1.9
C#C[C@]1(O)CC[C@H]2[C@H]3CCC4=Cc5oncc5C[C@]4(C)[C@@H]3CC[C@]21C	5.1
CN(C)Cc1ccccc1-c1ccc2ncnc(N3CCOCC3)c2c1	3.2
C=C1C[C@]23CC[C@H]4C(CO)(CO)C[C@@H](O)C[C@@]4(C)[C@@H]2CC[C@H]1C3	-2.0
C/C1=C2N=C(/C=C3N=C(/C(C)=C4\[N-]C(C)(C5N=C1C(C)(CCC(=O)NCC(C)OP(=O)([O-])O[C@H]1C(O)C(n6cnc7cc(C)c(C)cc76)O[C@@H]1CO)C5CC(N)=O)C(C)(CC(N)=O)C4CCC(N)=O)C(C)(CC(N)=O)C\3CCC(N)=O)C(C)(C)C/2CCC(N)=O.[CH2-]C1OC(n2cnc3c(N)ncnc32)C(O)C1O.[Co] (stereo partly drawn)	14.5
CCCCCCCC1=Cc2ccc(F)cc2C(C(C(=O)OC)C(=O)OC)N1C(=O)OC (stereo not drawn)	-3.9&-5.6
O=C1O/C(=C/Br)CCC1c1cccc2ccccc12 (stereo not drawn)	0.4

Sorted by the number under GLA inh pH 4.5 (smallest number first): 5 from the list above.
| Structure | GLA inh pH 4.5 |
| --- | --- |
| CN(C)C1C(=O)C(C(N)=O)C(=O)C2(O)C(=O)C3C(=O)c4c(O)ccc(Cl)c4C(O)C3CC12 (stereo not drawn) | -7.7 |
| CN(C)C(=O)c1ccc(-c2nc(Nc3ccncc3)c3ccccc3n2)cc1 | -2.2 |
| CCCn1c(-c2ccc(F)cc2)nc2c(NCCCCN3CCCC3)nc(C)nc21 | -2.1 |
| N[C@H](C(=O)O)c1ccc(C(=O)O)c(O)c1 | 4.5 |
| C[C@H]1Cc2c(COc3ccccc3)nc3c(c2CO1)CN(C(=O)c1cc(I)ccc1F)CC3 | 7.0 |

Other compounds.
SMILES	GLA inh pH 4.5
Cc1ccc(CN2C(=O)C[C@@H](NS(=O)(=O)c3ccc4ccccc4c3)C/C=C\C2c2ccc(C)cc2)cc1 (stereo partly drawn)	-12.3
COc1ccccc1CNc1cc(-c2cccc(NS(C)(=O)=O)c2)ncn1	9.4
Cc1ccccc1Nc1oc(-c2ccccc2)nc1-c1cccc2ccccc12	-3.7
C=CCNC(=O)N1CCc2nc(CCCC)c3c(c2C1)CO[C@@H](C)C3	7.5
COC(=O)c1ccc(C(NC(=O)OCc2ccccc2)/C(=C/[C@@H](C)C(=O)N[C@@H](CO)Cc2ccccc2)c2cccnc2)cc1 (stereo partly drawn)	-8.5
CCOC(=O)OC(C)OC(=O)C1N2C(=O)C(NC(=O)C(N)c3ccccc3)C2SC1(C)C (stereo not drawn)	5.5
COC(=O)[C@H]1C[C@@H]2CC[C@@H](O)C[C@@H]2N1Cc1c(F)cccc1Cl	1.3
CC1C=C[C@@H]2[C@H](C1)C(=O)N(Cc1ccccc1)[C@H]2c1ccccc1Br (stereo partly drawn)	-4.3
C=C1c2cccc(C(F)(F)F)c2O[C@H](C(=O)OCC)[C@@H]1CCC(C)C	-14.3
CN1CCN([C@@H](c2ccccc2)c2ccc(Cl)cc2)CC1	0.8
Cc1c(C)c2c(c(C)c1O)CCC(C)(CN1CCN(c3cc(N4CCCC4)nc(N4CCCC4)n3)CC1)O2 (stereo not drawn)	-15.2
COC(=O)CC1C(C)(C)C(OC(C)=O)[C@@]2(O)C=C3C4CC(=O)OC(c5ccoc5)[C@]4(C)CCC3[C@@]1(C)C2=O (stereo partly drawn)	-11.5
